MLL AF4-AF9 inh: inhibitors of AF4 peptide binding to AF9, primary screen, biochemical, AlphaScreen, biotin-AF4 peptide, FLAG-AF9, single point; 350,000 tested, 0.47% active; inhibition, % at 10 µM; Protein AF-9 (Homo sapiens), P42568; AID 651704, 2012;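 active = every replicate reaching a set inhibition limit, whatever the replicate mean, cut at about 25% in these data; inconclusive = mean inhibition reaches that limit but some replicates miss it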;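 note: 0% = plate neutral control median and 100% = total signal loss; the record names both 10 and 1 µM as test concentration; the first replicate is given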
Target sequence (P42568 whole entry, looked up): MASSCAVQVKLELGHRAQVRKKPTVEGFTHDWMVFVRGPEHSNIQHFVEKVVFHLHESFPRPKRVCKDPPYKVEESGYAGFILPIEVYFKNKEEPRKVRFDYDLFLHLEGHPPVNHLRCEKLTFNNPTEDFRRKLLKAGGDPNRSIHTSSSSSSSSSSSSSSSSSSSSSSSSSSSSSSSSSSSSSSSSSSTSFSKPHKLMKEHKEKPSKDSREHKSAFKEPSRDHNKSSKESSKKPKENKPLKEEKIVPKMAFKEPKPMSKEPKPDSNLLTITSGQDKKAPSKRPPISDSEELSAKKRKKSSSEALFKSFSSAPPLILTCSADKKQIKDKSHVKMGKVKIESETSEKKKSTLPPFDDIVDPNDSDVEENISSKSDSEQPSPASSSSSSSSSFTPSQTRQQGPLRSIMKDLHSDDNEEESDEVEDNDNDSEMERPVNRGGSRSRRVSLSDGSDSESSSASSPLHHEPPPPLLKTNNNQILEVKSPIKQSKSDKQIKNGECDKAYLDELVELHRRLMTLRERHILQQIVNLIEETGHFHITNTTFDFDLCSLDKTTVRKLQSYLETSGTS
rRNA inh HTS: reduced GFP signal of wild-type E. coli, primary screen, bacterial rRNA inhibitor project, GFP/RFP fluorescence, OD600, single point; E. coli WT GFP vs humanized-ribosome RFP mutants, 24 h; stronger effect = lower value; DMSO median 0, no signal -100; GFP signal change (wild-type ribosome), % (test concentration not listed); 350,000 tested, 1.6% active; AID 720706, 2013;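 active = significant combined selectivity score with lowered wild-type GFP, culture density cut under 30%, mutant RFP and density less affected; inactive = any of these conditions unmet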; note: one replicate is shown; some compounds called inactive have numbers as strong as hits
A1 inh: caspase 3/7 activation in MEF A1-2A-BIM cells, primary screen, A1 inhibitor project, cell-based, luminescence, HTS; 330,000 tested, 0.066% active; caspase activation, % (concentration not given with the values); Caspase-Glo 3/7 luminescence, 3 h; percent of clofoctol response, vehicle zero;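 active = over half of replicate activation scores above 10%, or exactly half above 10 with the replicate mean above 10; inconclusive = replicate mean below 10 yet half the replicates above 10; inactive = over half of replicates below 10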;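 note: wells of about 30 µL received 50 nL stock; many hits fall short of the cut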
T cruzi inh: inhibitors of intracellular T. cruzi growth, primary screen, luminescence, NIH3T3 host cells | 300,000 tested, 1.4% active | inhibition, % (no concentration beside the values) | T. cruzi beta-gal in NIH3T3, 90 h;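 active = mean inhibition across valid replicates above about 55%, limit read from the data; inconclusive = mean below that limit but half or more replicates reach it; inactive = mean below it, under half of replicates reach it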;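 note: signal also drops with host cell toxicity which is not excluded here; 0% = plate median of DMSO wells and 100% = zero luminescence signal; higher percent means less beta-gal luminescence so fewer parasites; stock transfer was 50 nL into about 50 µL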
RanGTP-Imp inh: inhibitors of RanGTP-importin-beta interaction, primary screen, biochemical, FRET, CFP-Ran, YFP-importin-beta, homogeneous | cell-free CFP-Ran/YFP-importin-beta FRET ratio | 300,000 tested, 1.1% active | Ran GTPase (GTP-bound) - importin-beta complex | inhibition, % (test concentration not listed) | AID 2216, 2009;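 active = most replicates above 15%; inconclusive = exactly half above 15%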;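 note: 0% = DMSO wells and 100% = Ran loaded with GDP instead of GTP; wells of about 40 µL received 100 nL stock; the first replicate is given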
Calb FLC: C. albicans growth inhibition with fluconazole, primary screen, CaCi-2 strain, Alamar Blue fluorescence. 300,000 tested, 0.57% active. C. albicans CaCi-2 (fluconazole-resistant clinical isolate) + fluconazole, 48 h. growth inhibition, % (no concentration beside the values);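 active = most replicates above 75%; inconclusive = exactly half above 75%; inactive = most below 75%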;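 note: all wells also contain fluconazole at 8 µg/ml as a sub-toxic cotreatment; 0% = median of DMSO wells and 100% = median of geldanamycin control wells; wells of about 8 µL received 7.5 nL stock; the first replicate is given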
Beta apoptosis: inhibitors of cytokine-induced beta cell apoptosis, primary screen, luminescence. protection from apoptosis, % (test concentration not listed). AID 435005, 2010. INS-1E cytokine-induced death, ATP luminescence, 48 h; percent of positive-control rescue, neutral wells zero. 300,000 tested, 0.8% active;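 active = all replicates at 75% or more, or half of them and the mean; inconclusive = half reach 75% but not the mean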;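 note: 0% = cytokine-treated negative control wells and 100% = positive control rescue; higher means more ATP so stronger rescue from cytokine killing; wells of about 40 µL received 100 nL stock; the first replicate is given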
Vif A3G: inhibitors of Vif binding to APOBEC3G peptide, primary screen, biochemical, TR-FRET, GST-Vif 1-94, biotin-A3G peptide, dose response retest (AID 1117319); 260,000 tested, 0.57% active; TR-FRET GST-Vif / biotin-A3G peptide binding; higher % means a stronger effect; test concentration not given here; strong numbers were not always called active; inhibition, %; hits with a dose series show IC50 in µM;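 active = above the screen mean plus three standard deviations and confirmed in dose response; inconclusive = results disagree or hit not tested in dose response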;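 note: Vif residues 1-94 fused to GST binding biotinylated APOBEC3G peptide 110-148; 0% = full assay without inhibitor and 100% = GST in place of GST-Vif; retest series ran down from 100 µM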
rRNA inh HTS OD600: further read-out of rRNA inh HTS, marked with its call; OD600 change, %; measured here: OD600 growth;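 optical density of the mix in the first replicate; 0 = DMSO median and -100 = no signal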
rRNA inh HTS RFP: recorded beside rRNA inh HTS, whose call it bears; RFP signal change, %; measured here: RFP humanized mutant strains;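 first replicate; 0 = DMSO median and -100 = no signal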
Active calls of the source: *; ? = inconclusive; . = no result given; & = joins results of further samples. An excerpt, so the mix of outcomes need not match the whole.

Order of values: MLL AF4-AF9 inh, rRNA inh HTS, rRNA inh HTS OD600, rRNA inh HTS RFP, A1 inh, T cruzi inh, RanGTP-Imp inh, Calb FLC, Beta apoptosis, Vif A3G
- Cc1cc(C)c2nc(SCC(=O)NCCN3C(=O)CSC3=O)cc(C)c2c1
  5.5, 13, 1, -1.3, -0.6, 9, 4.6, 4, -16, 67%
- CC(C)N(C(=O)COC(=O)[C@H](C)NC(=O)c1ccco1)c1ccccc1
  -0.7, 16, 12, -1.6, 0.8, -10, 2.1, -6, -4, -12%
- CC(=O)NC(CCS(C)(=O)=O)C(=O)Nc1cc(C)ccc1C (stereo not given)
  6.7, 3, 12, -11, -0.1, -10, 2.0, -2, -10, 11%
- COCCn1c(SCC(=O)c2ccc(Cl)cc2)nnc1C(C)C
  ., ., ., ., -2.1, -12, 1.7, 7, 1, 17%
- N#Cc1ccccc1NC(=O)c1ccccc1OCC(=O)Nc1ccc2c(c1)oc1ccccc12
  1.1, 9, 4, 0.3, -0.1, 61*, 0.0, -2, 5, .
- CCCc1cc(O)c2c(C)cc(=O)oc2c1
  7.0, -34, -38, -7.0, -0.4, -3, -1.5, 18, -3, -2%
- CCC(CC)c1nnc(NC(=O)c2ccc([N+](=O)[O-])cc2)s1
  ., ., ., ., -0.3, 1, 4.8, -21, 0, -2%
- CC1CCN(Cc2cc(=O)oc3ccc(C(C)C)cc23)CC1
  -8.2, -23*, -15*, -3.4*, 1.3, 13, 3.2, 8, 11, -3%
- Cc1noc(-c2ccc(C(F)(F)F)cc2)c1NC(=O)Nc1ccc(Cl)cc1
  0.1, 3, 14, 0.5, -0.9, -2, -2.4, -7, 105*, -1%
- CC(=O)C1C(=O)CC(c2ccc(Cl)cc2)CC1=O (stereo not given)
  -1.9, -5, 3, 6.7, 0.6, -14, 3.6, -1, -3, -7%
- CCOc1ccc(CNc2ccc(N3CCCC3)cc2)cc1
  6.9, ., ., ., 0.0, 52, 0.5, 2, 109*, 6.6µM*
- CCN(C(=O)CO/N=C/c1ccc(OC)cc1OC)c1c(N)n(Cc2ccccc2)c(=O)[nH]c1=O
  -4.7, 5, 4, 2.3, -0.3, ., ., ., -4, .
- Cc1ccc(OCC(=O)NCCCNC(=O)c2cnccn2)cc1C
  2.2, 3, 0, -0.3, 1.3, -2, 3.8, -12, 1, .
- Cc1ccc(S(=O)(=O)C2(C(=O)NC3CCCCC3)CC2)cc1
  0.8, 2, -15, -1.4, 0.4, -5, 0.9, 0, -3, .
- CCCc1cc(-c2n[nH]c(C(=O)OCC)c2-c2cscn2)c(O)cc1O
  9.6, -56, -79, -33, 0.8, 0, 2.0, -1, 3, -1%
- CCN(c1ccc(OCC(=O)OCC(=O)c2c(N)n(C)c(=O)n(C)c2=O)cc1)S(=O)(=O)c1ccccc1
  -1.1, -15*, 6.8*, 6.2*, 0.7, -7, 0.1, 11, -14, .
- CCc1ccc(NC(=O)Cn2nnc(C(=O)NCc3ccco3)c2N)cc1
  2.1, 12, 9, 1.3, -0.3, -7, 6.9, 3, -2, .
- COc1cc(/C=C/C(=O)OCC(=O)Nc2ccc(S(N)(=O)=O)cc2)ccc1O
  5.0, -1, 7, 3.5, 0.7, -11, -0.6, 2, -6, 5%
- COc1cc(/C=N/NC(=O)Cn2cnc3c2c(=O)n(C)c(=O)n3C)ccc1O
  -1.2, 15, 15, 0.1, 0.1, 6, 1.8, -4, -1, -4%
- CN(c1ccc(C(=O)NCc2cccnc2)cc1)S(=O)(=O)c1ccc(Cl)cc1
  1.1, ., ., ., 1.0, 3, ?, 2, ., .
- C=CCn1c(SCCC(=O)O)nnc1-c1cccs1
  ., ., ., ., 0.2, -21, 0.9, -1, -1, 26%
- Cc1cc(C(=O)CSc2nnc(N)s2)c(C)n1CCc1ccc(F)cc1
  ., ., ., ., -1.1, 10, 3.9, -23, 0, 7%
- CCOC(=O)N1CCN(C(=O)c2ccc(CS(=O)(=O)c3ccccc3OC)o2)CC1
  ., 3, 6, 3.1, 0.5, 1, 7.6, -17, -3, -1%
- O=C(COc1ccccc1)Nc1ccc(CN2CCCCC2)cc1
  0.5, 16, 13, 0.0, -0.1, 7, -0.6, ?, -4, 0%
- Cc1cc(OC(=O)c2c(C)cc(OC(=O)c3c(C)cc(O)cc3O)cc2O)cc(O)c1C(=O)O
  1.3, ., ., ., -0.5, 3, 0.4, -1, -5, .
- CC1CCCC(NC(=O)C2CCC(CNc3c(N4CCCCC4)c(=O)c3=O)CC2)C1C (stereo not given)
  -0.1, 8, 7, -2.5, 1.6, 3, 0.4, -1, 2, -2%
- CC1(C)CC2(C)OCCN2C(=S)N1 (stereo not given)
  7.2&-2.6, 14&8, 13&1, 5.7&-2.9, 2.2, -11, 7.0, 2, 6, -6%&-6%
- COc1ccc(C2/C(=C(/O)c3ccc(C)cc3)C(=O)C(=O)N2CCCN2CCOCC2)cc1 (stereo not given)
  0.6, 12, 14, -1.3, 0.2, -18, 6.5, -3, ., .
- Cc1ccsc1/C=N/N1CCN(Cc2ccccc2)CC1
  27*, 4, -4, 2.1, -0.4, 11, 1.3, -22, 1, 1%
- CCCc1c(O)c2ccccc2[nH]c1=O
  ., ., ., ., -0.3, 1, 0.0, -6, 4, ?

Order of values: MLL AF4-AF9 inh, rRNA inh HTS, rRNA inh HTS OD600, rRNA inh HTS RFP, A1 inh, T cruzi inh, RanGTP-Imp inh, Calb FLC, Beta apoptosis, Vif A3G
- Cn1c(Cn2nnc3ccccc32)nnc1SCC(N)=O
  -16, 14, 8, 4.0, ?, 2, -1.4, -3, -8, 9%
- O=C(CN1CCc2cc3c(cc2C1)OCCCO3)Nc1c(F)cccc1F
  -1.6, 5, -9, -12, -0.8, 6, -2.0, 8, 1, .
- COc1ccc(CC(=O)Nc2cccc(S(=O)(=O)N3CCCCCC3)c2)cc1OC
  ., ., ., ., 0.7, -103, 4.4, -3, 87*, .
- CC1=C(C(=O)c2ccccc2)C(c2ccc(O)cc2)NC(=S)N1 (stereo not given)
  ?, 14, 2, 2.0, 0.7, -7, -0.1, -10, -1, -9%
- C=CCN1N=C(c2ccc(Cl)s2)CSC1=O
  ., ., ., ., 0.5, 10, 0.2, 0, -1, 0%
- CCOC(=O)[C@H]1[C@H]2COc3cc(OC)ccc3[C@@H]2N2C(=O)CN(Cc3ccccc3)C(=O)[C@@]12C
  3.0, 0, -6, 1.0, -0.1, ., ., ., -1, .
- O=C(CCC(=O)N1CCN(Cc2ccccc2)CC1)Nc1nnc(C2CCCCC2)s1
  0.1, 1, -13, 14, 0.0, 7, 4.1, 13, -6, 6%
- COC(=O)c1ccc(/C=N/N2CCN(Cc3ccc(C)cc3C)CC2)cc1
  ., ., ., ., 1.3, -32, 2.9, -14, -7, -8%
- O=c1cc(CO)oc(C(Nc2cccc(C(F)(F)F)c2)c2ccccn2)c1O (stereo not given)
  8.0, 3, 5, 30, 0.5, 6, 1.5, -2, 2, 23%
- CCCCNC(=O)c1ccc(NC(=O)C2CCCO2)cc1 (stereo not given)
  ., ., ., ., 0.1, -2, 1.4, 12, -2, 2%
- CCc1nc(SCC(=O)NCCc2ccccc2)c2c(=O)n(C)c(=O)n(C)c2n1
  4.4, 3, 6, 0.4, -0.3, -3, -0.2, -1, 4, -2%
- COc1ccccc1-c1c(C)oc2c(CN3CCN(CCO)CC3)c(O)ccc2c1=O
  ., ., ., ., ., -11, 2.9, -7, ., -5%
- Cc1cccc(NC(=O)CSCc2nc3c(nnn3Cc3ccc(F)cc3)c(=O)[nH]2)c1C
  -1.7, -7, 2, -5.6, 0.4, 6, 4.8, -16, -2, -1%
- CC(C)Sc1nc(-c2ccccc2)cc(=O)[nH]1
  ., ., ., ., ., -5, 0.6, 5, -6, -9%
- Cc1ccc(C)c(NC(=O)C2CCC(C)(C(=O)O)C2(C)C)c1 (stereo not given)
  ., ., ., ., -0.3, -11, -2.3, 0, -4, ?
- CSC1=N/C(=C\c2cccc(F)c2)C(=O)S1
  ., ., ., ., -1.4, -7, ?, 2, 7, 10%
- CC(=O)c1ccc(S(=O)(=O)N(C)C(C)CCc2ccco2)cc1 (stereo not given)
  3.0, -11, -3, 3.0, -0.3, 1, 2.1, 1, -5, -1%
- CC(=O)c1cccc(NC(=O)CCS(=O)(=O)c2ccc(Br)s2)c1
  -1.8, -10, -8, 4.2, 1.1, 2, 0.8, -9, -1, -6%
- CCN(CC)S(=O)(=O)c1ccc(C(=O)OCCN2C(=O)CCC2=O)cc1
  -0.3, 11, 10, 1.9, -0.5, -3, 2.4, 0, 1, ?
- CN(CCS(=O)(=O)c1ccc(Cl)cc1)Cc1cccnc1
  -3.8, 8, 12, 2.8, 1.3, 1, 1.1, -2, -7, 8%
- CCCN1CCC(NC(=O)Nc2cc(Cl)ccc2OC)CC1
  -6.8, 3, -18, -8.1, -1.6, 10, -3.1, 0, -5, 1%
- CC1CCN(c2ccc(NC(=O)c3ccccc3[N+](=O)[O-])cc2)CC1
  4.1, 1, 5, 16, 1.5, 19, 6.9, 7, 1, 7%
- CCc1ccc(N(CC(=O)NC2CCCC2)S(=O)(=O)c2c(C)noc2C)cc1
  -3.5, -1, 4, -1.6, -0.1, 7, 0.1, -4, ., 1%
- O=C(c1cccnc1)N1CCN(c2c(Cl)cccc2[N+](=O)[O-])CC1
  ., ., ., ., -0.7, -3, -0.6, 8, -4, 4%
- Oc1ccccc1N=Cc1ccc[nH]1
  ., ., ., ., 0.7, -41, 1.8, -1, -16, ?

Entries of single compounds, quoted from the list. Screens in order: MLL AF4-AF9 inh | rRNA inh HTS | rRNA inh HTS OD600 | rRNA inh HTS RFP | A1 inh | T cruzi inh | RanGTP-Imp inh | Calb FLC | Beta apoptosis | Vif A3G
Shown for CCCCNC(=O)c1ccc(NC(=O)C2CCCO2)cc1 (stereo not given) = . | . | . | . | 0.1 | -2 | 1.4 | 12 | -2 | 2%
Shown for CCN(C(=O)CO/N=C/c1ccc(OC)cc1OC)c1c(N)n(Cc2ccccc2)c(=O)[nH]c1=O = -4.7 | 5 | 4 | 2.3 | -0.3 | . | . | . | -4 | .
Shown for Cc1noc(-c2ccc(C(F)(F)F)cc2)c1NC(=O)Nc1ccc(Cl)cc1 = 0.1 | 3 | 14 | 0.5 | -0.9 | -2 | -2.4 | -7 | 105* | -1%
